Sa RN4220 lethal: kills Staphylococcus aureus RN4220; S. aureus RN4220 growth, OD600, 16 h; inhibition, % (no concentration beside the values); 330,000 compounds, 0.33% hits; AID 1259311;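 active means z-score of -3 or lower and OD600 up to 0.18 on both plates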;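 further: plate controls were untreated cells for no effect and reference antibiotic for full effect; stock transfer was 100 nL into about 80 µL; one replicate is shown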
BJeLR lethal: BJeLR cell viability loss; BJeLR (HRASV12) viability, CellTiter-Glo ATP luminescence, 48 h; reference of the scale not given here; inhibition, % (test concentration not listed); 300,000 compounds, 0.17% hits;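 active means replicate mean above 50%; inconclusive means above 50% but judged a plate artefact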;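 further: 50 nL library stock added to about 25 µL; numbers are from one replicate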
Sa ugtP lethal: growth inhibition of S. aureus ugtP deletion strain; growth inhibition, % (no concentration beside the values); 330,000 compounds, 0.54% hits; S. aureus RN4220 ugtP deletion, OD600 growth, 16 h; some inactives read as strong as hits;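 active means z-score under -3 and OD600 up to 0.15 on both plates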;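 further: plate controls were untreated wells for no effect and antibiotic for full effect; wells of about 80 µL received 100 nL stock; the first replicate is given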
Mtb hypoxia inh: reduces hypoxia-regulated biosensor signal in M. tuberculosis; M. tuberculosis hypoxia-regulated fluorescent reporter, fluorescence; fluorescence inhibition, % (no concentration beside the values); 300,000 compounds, 0.1% hits; AID 1159583;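 active means 35 to 45% if threefold the growth effect, above 45% if 1.5-fold the growth effect; inactive means the rest, general growth blockers included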;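 further: wells of about 50 µL received 100 nL stock; 0% = vehicle wells and 100% = reference inhibitor wells; whole bacteria with a GFP reporter of the hypoxia response; strong numbers were not always called active; many hits fall short of the cut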
PrP UTR inh: suppresses PrP 5' UTR mRNA reporter expression; cell-based PrP 5' UTR mRNA reporter, plate reader; inhibition, % (test concentration not listed); 340,000 compounds, 0.35% hits; AID 488862;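 active means every replicate at 50% or more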;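 further: 0 = median of the neutral control wells; tested in H4 reporter cells; numbers are from one replicate; inactives centre near -14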
Autofluor counter: compound fluorescence in toxin protease inhibitor counterscreen | fluorescence intensity (concentration not given with the values) | 360,000 compounds, 3.1% hits | compound autofluorescence counterscreen, microsphere flow cytometry; active compounds read high;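 active means at least 3 SD above the mean of all compounds, about 16000 in these data; inconclusive means too few beads counted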;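 further: 100 nL of 1 mM stock went into each well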
Mtb hypoxia inh growth: second read-out of Mtb hypoxia inh, no call of its own (marks repeat the call); growth inhibition, %; measured here: M. tuberculosis growth (absorbance);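 0% = vehicle and 100% = reference antibiotic; read after six days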
* marks the source's active call; other numbers are inactive results; ? = inconclusive; . = no result given; & = joins results of further samples.

SMILES,Sa RN4220 lethal,BJeLR lethal,Sa ugtP lethal,Mtb hypoxia inh,Mtb hypoxia inh growth,PrP UTR inh,Autofluor counter
CCc1cc2c(nc1CC)CCN(CCC(C)=NOC(C)c1cc(-c3c(C)cc(C)cc3C)no1)C2 (stereo unspecified),1.2,.,-4.2,11.3,14.8,.,.
Nc1nonc1-n1nnc(C(=O)N/N=C/c2cc(Cl)ccc2O)c1CN1CCCCCC1,.,40.0,.,.,.,-26.3,5339
Cc1cc(C(=O)NCCc2ccc(Cl)cc2)no1,0.4,-0.4,5.0,22.1,15.4,-14.1,4071
COCCCNC(=O)C(=O)NN=Cc1ccc(OCC(=O)Nc2cccc(Cl)c2C)c(OC)c1,5.7,.,-4.8,9.9,-1.8,.,.
COc1ccccc1NC(=O)Cc1nnc(SCC(=O)Nc2nccs2)n1C,5.0,-14.3,-0.7,3.8,4.6,-14.5,4942
CCOc1ccccc1CN1CCNC(=O)C1CC(=O)NCc1ccccn1 (stereo unspecified),0.1,-0.8,-5.3,-1.0,1.0,10.4,4764
Cc1c(Br)c(=O)oc2c(C)c(O)ccc12,3.8,-1.2,-5.3,7.5,0.0,6.1,2547
CCn1c(SCC(=O)Nc2cccc(C(C)=O)c2)nnc1C(C)C,-2.9,9.3,3.0,.,.,-15.4,3934
O=C1CN(C(=O)COC(=O)CNS(=O)(=O)/C=C/c2ccccc2)c2ccccc2N1,1.3,1.8,3.5,-0.2,20.8,-94.8,4119
C[C@H](NC(=O)c1ccco1)C(=O)Nc1ccc2c(c1)OCO2,2.6,0.5,-0.3,0.8,0.9,-26.2,2616
CC(=NN1CCN(c2ccccn2)CC1)c1cccc([N+](=O)[O-])c1,-0.2,.,6.1,12.0,3.8,.,.
O=C(NCCN1CCN(c2ccccc2)CC1)C1(S(=O)(=O)c2ccc(Cl)cc2)CC1,0.6,.,7.3,7.7,9.4,-8.9,6285
CCOc1ccc(NC2OC(C)C(O)C(O)C2O)c([N+](=O)[O-])c1 (stereo unspecified),6.5,1.6,-1.7,11.8,5.9,2.7,4210
C/C(=N\NC(=O)c1ccncc1)c1ccc(N(C)C)cc1,.,-9.0,.,.,.,-13.3,4278
Nc1c2c(nn1-c1ccccc1)CCC2,0.3,-3.6,-0.6,0.3,-0.8,-12.4,2795
CC(C)Nc1nnc(SCC(=O)N2CCN(C(=O)c3ccco3)CC2)s1,1.6,.,3.7,1.5,0.6,-85.2,?
CCOC(=O)c1c(NC(=O)CSc2nnc(-c3cccnc3)o2)sc2c1CCC2,2.7,11.4,4.3,11.8,5.3,-33.2,9904
C/C(=N\NC(=O)c1cc2ccccc2cc1O)c1cccs1,.,11.1,.,.,.,-11.9,3962
CCC1(CC)C(=O)C2=C3C1[C@H](C(=O)OC)CC(C(=O)OC)C[C@H]3[C@H]1C(=O)N(c3ccccc3)C(=O)[C@H]1[C@H]2C (stereo partly specified),.,-2.1,.,.,.,-3.0,3319
O=C1NC(=Nc2ccccc2)c2ccc([N+](=O)[O-])cc21,-2.7,3.4,3.6,-8.6,4.5,-17.4,2566
COc1ccccc1C1C(=C(O)c2ccc(C)cc2)C(=O)C(=O)N1CC(C)O (stereo unspecified),2.2,.,0.5,5.9,6.7,.,.
CCc1ccc2c(c1)C(C)=CC(C)(C)N2,-10.6,5.6,-11.1,2.9,7.1,-11.1,2990
COCCn1c(C)cc(C(=O)CN2C(=O)NC3(CCCCCC3)C2=O)c1C,-9.2,.,-6.9,-4.7,9.0,-50.1,3495
CC(=O)Nc1cccc(C(C)=NNC(=O)c2ccc(NS(=O)(=O)c3cccs3)cc2)c1,2.7,.,-1.6,-0.6,2.5,.,.
N#Cc1ccc(C(=O)OCC(=O)N2CCCC2)cc1,-2.5,-18.5,10.5,3.7,-6.3,-17.1,3458

Entries from the list above containing a furan ring, fused or not:
SMILES,Sa RN4220 lethal,BJeLR lethal,Sa ugtP lethal,Mtb hypoxia inh,Mtb hypoxia inh growth,PrP UTR inh,Autofluor counter
C[C@H](NC(=O)c1ccco1)C(=O)Nc1ccc2c(c1)OCO2,2.6,0.5,-0.3,0.8,0.9,-26.2,2616
CC(C)Nc1nnc(SCC(=O)N2CCN(C(=O)c3ccco3)CC2)s1,1.6,.,3.7,1.5,0.6,-85.2,?

Look-ups from the results shown.
Under Sa ugtP lethal, C[C@H](NC(=O)c1ccco1)C(=O)Nc1ccc2c(c1)OCO2 has -0.3
Under Autofluor counter, C/C(=N\NC(=O)c1cc2ccccc2cc1O)c1cccs1 has 3962

(cont.)
SMILES,Sa RN4220 lethal,BJeLR lethal,Sa ugtP lethal,Mtb hypoxia inh,Mtb hypoxia inh growth,PrP UTR inh,Autofluor counter
O=C(Nc1nnc(-c2ccco2)s1)c1ccccc1,6.9,0.5,-1.9,5.9,14.0,-38.6,9074
COc1cc(C=NN=C(N)N)ccc1OCc1ccccc1Cl,-13.3,.,-28.9,-3.9,3.2,.,.
CCC(=O)Nc1cccc(NC(=S)NC(=O)c2cc3ccccc3o2)c1,.,-0.2,.,.,.,-39.2,2339
CCCn1c(O)c(CN2CCCC(C)C2)c(C)c(C#N)c1=O (stereo unspecified),2.1,1.2,-1.0,2.0,2.9,-20.4,4015
CSc1ccc(C(=S)N2CCCC2)cc1,1.4,-4.1,3.5,-0.8,-2.0,-28.9,.
NN1C(=O)NC(c2ccccc2)(c2ccccc2)C1=O,-0.5,9.2,3.1,-0.4,-3.4,-30.3,3462
Cc1sc(-c2ccncc2)nc1OC(=O)c1ccccc1,18.2,5.8,18.9,-3.0,-2.8,-3.0,.
COc1ccc(C2C3=C(CCCC3=O)Nc3nc(SCc4ccc(C(=O)O)cc4)nn32)cc1OC (stereo unspecified),1.3,1.6,7.8,3.4,1.4,-9.8,5633
CC(C)(CNC(=O)C1c2ccccc2-c2ccccc21)N1CCOCC1,5.3,-16.9,-1.2,-1.2,-4.3,-0.1,5245
CCN(CC)CCNC(=O)C1(O)c2cc(Br)ccc2NC(=O)N1c1cccc(OC)c1 (stereo unspecified),1.4,-0.9,-2.1,-11.4,5.6,-23.2,3854
Cc1ccc(NC(=O)C2CCCN2S(=O)(=O)c2ccc3c(c2)CCC(=O)N3)cc1Cl (stereo unspecified),-1.9,3.8,0.4,.,.,-32.6,6212
COc1cccc(NC(=O)Nc2ccc3c(c2)N(C)C(=O)CS3)c1,-2.0,-9.4,-9.5,1.8,3.6,-10.3,10487
COc1ccc(OCCSc2nnc(-c3cccnc3)n2N)cc1,2.0,0.1,4.6,8.1,9.2,-10.3,7661
Cc1cccc(-n2c(-c3cccs3)nc3ccccc3c2=O)c1,5.0,-3.1,24.2,16.8,6.5,-12.6,2580
CCCNC(=O)c1ccccc1NC(=O)c1ccccc1N(C)S(=O)(=O)c1ccccc1,.,0.4,.,.,.,3.6,2149
CCN1CCN(S(=O)(=O)c2ccc(Cl)c(C(=O)Nc3ccc(OC(F)F)cc3)c2)CC1,-1.9,-5.2,-4.3,-19.1,2.9,-16.9,7262
CC(=O)c1c(C)n(C)c2ccc(O)cc12,1.0,9.3,-2.2,3.0,9.7,-13.9,2551
CC(=O)NC(CC(=O)Nc1cccc(S(=O)(=O)N2CCCCC2)c1)c1ccccc1 (stereo unspecified),6.8,-0.3,-0.7,.,.,-2.3,3053
CCn1nc(C(=O)NCc2nnc3ccccn23)c2ccccc2c1=O,2.6,.,5.4,-16.6,-4.9,-29.4,5341
CCc1nnc(NC(=O)C2CCCO2)s1 (stereo unspecified),8.3,-5.7,20.9,0.4,-5.5,5.6,4568
Cc1cccc(N2CCc3c2nc2ccccc2c3N)c1,-9.4&-3.1,-4.7,-19.2&5.1,5.6,7.5,-29.2&-15.1,2934&4775
CCCCC1=CC2=C(c3ccco3)C(=O)C(C)(OC(=O)c3ccc(OC)cc3)C(=O)C2=CN1CCCOC(C)C (stereo unspecified),3.4,-8.4,-0.2,10.2,7.2,-15.9,3753
CCC(=NNC(=O)c1nnn(-c2nonc2N)c1-c1cccs1)c1ccccc1,1.3,.,-2.7,0.8,4.8,.,.
COc1ccccc1/C=C1\SC(=S)N(CCC(=O)Nc2cccc(O)c2)C1=O,-1.6,3.7,-7.1,-11.4,-10.4,-0.2,4019
CC(C)(C)OC(=O)N1CCC(C(=O)Nc2ccc3c(c2)CCC3)CC1,5.4,.,14.6,1.6,-1.2,-31.3,2719
COc1ccc(-n2nc(C(=O)NCCCN3CCOCC3)c3ccccc3c2=O)c(OC)c1,5.0,3.5,-2.3,15.1,5.2,-4.0,5219
CCc1ccc(NC(=S)N2CCC(NC(=O)c3ccccc3)CC2)cc1,3.0,-9.7,10.1,10.0,8.1,-20.3,5573
O=C(CSc1ccccc1Cl)NC1CCCc2ccccc21 (stereo unspecified),4.6,4.0,-3.2,4.6,-7.6,-9.2,1917
CN(C(=O)CSc1nc(C2CC2)nc2ccccc12)c1nc(-c2ccccc2)cs1,4.0,-1.2,5.9,-6.6,-0.6,-20.3,4335
COc1cccc(/C=N/NC(=O)CC(=O)NCCc2ccc(OC)c(OC)c2)c1,.,-2.5,.,.,.,2.1,8758
COc1cccc(NS(=O)(=O)c2ccc3c(c2)CCCN3C(C)=O)c1,8.1,-2.2,5.2,8.6,6.5,1.6,9132
Cc1ccc(S(=O)(=O)Nc2nc(C)c(C(=O)NN=Cc3ccccc3)s2)cc1,6.6,.,26.7,-7.6,-1.3,.,.
C[C@@]12C(=O)N(Cc3ccc(Cl)cc3)CC(=O)N1C1c3ccccc3OCC1C2c1ccccc1 (stereo partly specified),-4.7,.,10.4,-5.1,6.7,.,.
COc1ccc(C(=O)NC(C)c2cc(OC)c(OC)cc2Br)cc1 (stereo unspecified),0.5,8.7,2.7,3.1,-2.6,-22.0,11704
COc1cccc(/C=C/C(=O)OCC(=O)Nc2cc(S(=O)(=O)N3CCOCC3)ccc2C)c1,0.3,0.4,3.2,12.6,-0.3,-16.8,4014
CC1Nc2ccccc2C(=O)N1NS(C)(=O)=O (stereo unspecified),-1.0,4.0,2.3,2.5,-0.5,-21.9,4560
CCN1CCN(C(=O)CCc2nc3ccccc3n2-c2ccccc2)CC1,-6.2,-12.2,1.1,-2.1,-9.0,-15.7,9231
O=C(NC1CCN(Cc2ccccc2)CC1)c1ccccc1,1.8,12.7,5.0,14.3,8.1,-10.1,4079
Cc1cccc(NC(=O)CSc2ccc3nnc(-c4cccnc4)n3n2)c1,1.6,0.3,-0.5,-4.9,7.4,-7.6,4493
Cc1ccc2[nH]c(C)c(C=NNc3nc4ccccc4s3)c2c1,99.9*,.,99.0*,3.2,9.0,.,.
Cc1cc(NC(=O)CCC(=O)N(Cc2ccco2)C(C(=O)NC2CCCC2)c2ccccc2C)no1 (stereo unspecified),3.0,1.2,-1.7,.,.,-5.3,4760

Screens from PubChem.
